Tn7 DDE FP – DD(E)-Tn7 binding inhibition, primary FP screen | inhibition, % at 8.3 µM | hit rate 0.13% among 370,000 | AID 720508 | FP displacement of FITC-Tn7 peptide from fibrin DD(E); 0% = median of compound wells per plate;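 active = inhibition above the mean of compounds falling within the control limits plus 3 SD of them, cut at about 14% in these data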;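 note: 0% = plate median of compound wells and 100% = 10 µM Aha-Tn7 peptide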
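Also added: labelled Tn7 tracer, 0.1 µM; Assay system: human fibrin DD(E) protein; Amount: 2 µM fibrin DD(E); Schedule: 10 min compound pre-incubation, 3 h probe incubation at room temperature; Repeats: one replicate per compound; Read-out basis: percent inhibition; Measured by: fluorescence polarization of the labelled Tn7 tracer.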
TCR-CD3 inh – blocks the human TCR-CD3 interaction; inhibition, % at 9.4 µM; TAMRA-labeled TCR probe fluorescence, biochemical; hit rate 0.37% among 360,000; in the data active = inhibition above about 19%;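 note: recombinant mutant TCR 2C K166C tagged with TAMRA read by polarization; 0% = receptor in buffer alone and 100% = receptor with positive control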
TDP2 absorb – TDP2 (human) inhibition, absorbance primary screen; inhibition, % at 12.8 µM; recombinant TDP2, T5PNP hydrolysis, p-nitrophenol absorbance 415 nm; O95551; hit rate 0.34% among 370,000;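 active = inhibition above the mean of all tested compounds plus 3 SD, set per campaign, cut at about 25% in these data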;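 note: 0% = DMSO with enzyme and 100% = buffer with substrate but no TDP2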
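Read-out basis: percent inhibition. System: recombinant human TDP2. Buffer or medium: Mg2+-containing Tris-HCl buffer, pH 7.5. Repeats: single replicate. Timing: reaction 2 h, 37 °C. Benchmarks: high control without enzyme, low control DMSO plus TDP2. Probe or stimulus: 5 mM T5PNP. Doses: 12.8 µM only. Measured by: epi absorbance of p-nitrophenol freed from T5PNP by hydrolysis.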
PRMT1 inh – blocks human protein arginine methyltransferase 1 | inhibition, % at 2.79 µM | AID 652257 | recombinant PRMT1, activity-based probe fluorescence polarization | Q99873 | hit rate 1.3% among 370,000;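 active = inhibition above about 21% made by adding two undisclosed values, limit read from the data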
UHRF1 binding – human UHRF1 methylated DNA binding inhibitors; inhibition, % at 4.4 µM; UHRF1 binding to methylated oligo, TR-FRET; AID 687016; hit rate 0.75% among 370,000; in the data active = inhibition above about 21%;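 note: UHRF1 SRA domain binding a hemimethylated CpG hairpin DNA probe; 0% = median of test compound wells and 100% = reference inhibitor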
Target sequence (Q96T88 whole entry, looked up, the tested form may be a part): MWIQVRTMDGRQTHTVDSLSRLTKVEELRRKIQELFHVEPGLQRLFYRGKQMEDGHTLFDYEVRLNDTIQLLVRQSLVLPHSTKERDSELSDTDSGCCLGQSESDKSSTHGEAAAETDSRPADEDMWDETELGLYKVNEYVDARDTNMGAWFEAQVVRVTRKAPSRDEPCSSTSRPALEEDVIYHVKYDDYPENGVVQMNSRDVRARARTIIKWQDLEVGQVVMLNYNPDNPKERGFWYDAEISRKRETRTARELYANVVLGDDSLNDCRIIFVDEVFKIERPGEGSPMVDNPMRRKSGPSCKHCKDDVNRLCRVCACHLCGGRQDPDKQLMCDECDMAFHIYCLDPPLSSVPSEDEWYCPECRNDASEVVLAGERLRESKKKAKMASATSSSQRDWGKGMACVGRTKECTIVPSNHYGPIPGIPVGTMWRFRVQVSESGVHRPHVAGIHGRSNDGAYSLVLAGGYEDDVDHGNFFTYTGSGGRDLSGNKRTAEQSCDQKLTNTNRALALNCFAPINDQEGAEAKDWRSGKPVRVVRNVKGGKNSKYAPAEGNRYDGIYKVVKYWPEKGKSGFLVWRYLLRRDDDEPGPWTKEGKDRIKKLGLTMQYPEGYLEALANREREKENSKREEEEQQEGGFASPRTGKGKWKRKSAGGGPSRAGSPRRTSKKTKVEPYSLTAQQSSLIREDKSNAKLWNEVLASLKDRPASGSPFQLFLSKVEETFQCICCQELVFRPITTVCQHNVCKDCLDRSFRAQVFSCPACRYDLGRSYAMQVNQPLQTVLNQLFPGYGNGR
LEDGF integ inh – blocks HIV-1 LEDGF/p75-dependent DNA integration; TR-FRET IN-LEDGF/p75 DNA integration, Eu/Cy5; inhibition, % at 3.7 µM; hit rate 0.64% among 370,000; AID 743269;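 active = inhibition above the screen-wide mean plus 3 SD, cut at about 13% in these data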;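 note: signal is the Cy5 over europium emission ratio at 671 and 618 nm; 0% = plate median of compound wells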
mABHD4 FP – ABHD4 (mouse) inhibition, primary FP screen. inhibition, % at 8.92 µM. purified mABHD4, FP-Rh probe fluorescence polarization. Q8VD66. AID 720543. hit rate 0.54% among 370,000;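 active = inhibition exceeding the mean over every tested compound plus 3 SD, cut at about 30% in these data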;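 note: 0% = plate median of compound wells and 100% = S159A mutant with DMSO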
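System: mouse ABHD4 enzyme, wild type / Medium: HEPES pH 7.0, NaCl, Pluronic buffer / Reagent: FP-Rh activity-based fluorescent probe / Control set: S159A mutant high control, sample median low control / Detection: fluorescence polarization with parallel and perpendicular emission, 525/598 nm / Schedule: 45 min + 60 min at 25 °C / Compound dosing: 8.92 µM, single dose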
SIAE inh – human SIAE inhibition, primary screen. hit rate 0.69% among 370,000. Q9HAT2. inhibition, % at 9.66 µM. SIAE FP-Rh probe binding, fluorescence polarization;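 active = inhibition above a cutoff: mean of compounds within the control limits plus 3 SD of those, cut at about 17% in these data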;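 note: 0% = plate median of compound wells and 100% = probe without SIAE protein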
PG9 binder – binds the HIV-1 gp120 antibody PG9 | TR-FRET gp120-PG9 antibody binding | inhibition, % at 6.7 µM | hit rate 0.43% among 360,000; in the data active = inhibition above about 8.5%
* hit, by the source's call.

Preview (6 entries):
SMILES	Tn7 DDE FP	TCR-CD3 inh	TDP2 absorb	PRMT1 inh	UHRF1 binding	LEDGF integ inh	mABHD4 FP	SIAE inh	PG9 binder
Cc1ccc(C(=O)COC(=O)c2cccs2)cc1	2	3	12	-2	-2	-3	16	4	1.9
C/C=C1\COC(C(=O)NCCCN2CCCC2=O)(C(F)(F)F)C=C1C=C(C)C (stereo unspecified)	0	-6	7	0	3	2	-1	3	0.8
Cc1ccc(OCCn2c(C3CC(=O)N(Cc4ccccc4)C3)nc3ccccc32)cc1 (stereo unspecified)	-3	-8	-11	1	1	-5	-9	0	0.6
Cc1cc(-c2csc(NC(=O)c3ccc(=O)[nH]c3)n2)c(C)n1Cc1ccco1	2	18	-3	8	9	63*	7	14	-1.1
CCOC(=O)C1=NN(c2ccccc2)C2C(=O)N(c3ccccc3OC)C(=O)C12 (stereo unspecified)	3	2	0	0	12	3	3	5	0.7
O=C(NC1CC(=O)N(c2ccc(Cl)cc2)C1)N1CCN(C(=O)c2ccco2)CC1 (stereo unspecified)	0	-9	-11	3	5	-5	-6	0	0.1

All compounds of this part, previewed entries included:
SMILES	Tn7 DDE FP	TCR-CD3 inh	TDP2 absorb	PRMT1 inh	UHRF1 binding	LEDGF integ inh	mABHD4 FP	SIAE inh	PG9 binder
Cc1ccc(C(=O)COC(=O)c2cccs2)cc1	2	3	12	-2	-2	-3	16	4	1.9
C/C=C1\COC(C(=O)NCCCN2CCCC2=O)(C(F)(F)F)C=C1C=C(C)C (stereo unspecified)	0	-6	7	0	3	2	-1	3	0.8
Cc1ccc(OCCn2c(C3CC(=O)N(Cc4ccccc4)C3)nc3ccccc32)cc1 (stereo unspecified)	-3	-8	-11	1	1	-5	-9	0	0.6
Cc1cc(-c2csc(NC(=O)c3ccc(=O)[nH]c3)n2)c(C)n1Cc1ccco1	2	18	-3	8	9	63*	7	14	-1.1
CCOC(=O)C1=NN(c2ccccc2)C2C(=O)N(c3ccccc3OC)C(=O)C12 (stereo unspecified)	3	2	0	0	12	3	3	5	0.7
O=C(NC1CC(=O)N(c2ccc(Cl)cc2)C1)N1CCN(C(=O)c2ccco2)CC1 (stereo unspecified)	0	-9	-11	3	5	-5	-6	0	0.1
C/C(=N\NC(=O)c1ccc(NS(=O)(=O)c2cccs2)cc1)c1ccc2ccccc2c1	3	-4	-3	2	1	-7	-6	-3	-1.2
CCCn1nnc(NC(=S)NC(=O)C(C)(C)C)n1	0	4	-3	-1	0	-1	7	5	-3.1
CCC(C)N1CCCC1C(=O)Nc1c(C)cc(C)cc1C (stereo unspecified)	1	0	-9	-1	-6	-3	0	-13	-0.4
C=C(C)C1CC=C(C)/C(=N/NC(=O)COc2cccc3ccccc23)C1 (stereo unspecified)	-12	-4	1	1	0	2	3	2	0.8
c1ccc2oc(SCc3nc4ccccc4s3)nc2c1	0	3	4	1	-1	-3	-23	-15	0.3
CC(C)(C)c1ccc(C(=O)NC(=S)Nc2nc3c(s2)CCCC3)cc1	-1	0	9	0	0	-3	1	-7	-0.7
O=C(COC(=O)c1ccccc1Br)NC(=O)NCc1ccccc1	4	0	2	2	-2	1	-11	-9	1.4
CC1=C(C(=O)OCc2ccccc2)C(c2cccnc2)n2nnnc2N1 (stereo unspecified)	1	-2	2	-1	-2	3	2	1	3.4
C/C(CC(C)(C)C1CCCCC1)=N\NC(N)=S	3	2	-1	16	-3	-3	-5	4	-1.8
O=C(C1CC(=O)N(c2ccc(F)cc2)C1)N1CCOCC1 (stereo unspecified)	0	-5	1	-3	2	-3	11	2	1.2
NC(=O)c1ccc(NC(=O)COC(=O)C2(c3ccccc3F)CCCC2)cc1	-7	-10	-6	4	4	1	-11	-7	-0.5
C[C@@H](C(=O)N[C@@H](Cc1ccccc1)C(=O)O)n1nnc2ccccc2c1=O	6	6	-11	-1	-1	0	2	5	0.4
O=C(CN1CCN(Cc2ccccc2Cl)C1=O)NC1CCCCCC1	3	-1	0	-3	1	1	0	0	-0.4
C=CCn1c(SCC(=O)NC2CCCCC2)nnc1C(C)NC(=O)c1cccs1 (stereo unspecified)	-12	-2	-7	-3	1	3	-1	-4	-0.2
O=C(NNC(=O)c1ccccc1-n1cccc1)c1ccc(F)cc1	4	-2	1	4	1	0	1	0	0.0
O=C(NC1CCOC1=O)OCc1ccccc1 (stereo unspecified)	3	-12	-1	7	2	-3	-19	-6	1.8
CC(C)(C)C(=O)Oc1cc(N)n(S(=O)(=O)c2ccccc2)n1	-4	-2	3	2	1	3	-1	0	0.0
CC(C)OCCCNC(=O)COCC(=O)Nc1ccc(OCCc2ccccc2)cc1	1	-6	-6	0	4	1	4	-1	-1.0
COc1cccc(C(=O)NCCS(=O)(=O)N2CC(C)CC(C)C2)c1 (stereo unspecified)	8	4	9	0	0	-1	0	-3	1.0
O=C(Nc1ccc2oc(=O)ccc2c1)c1cccnc1Cl	-6	6	4	-2	4	4	-2	-4	-0.2
Cc1ccc(C(=O)Oc2ccc(Cl)c3cccnc23)cc1[N+](=O)[O-]	2	1	-3	-1	-3	1	5	11	-1.4
COc1cnc(-c2ccccn2)nc1Sc1ccccc1	-4	0	10	-5	-1	7	4	7	-1.2
C/C=C/C=C/C(=O)OCC(=O)Nc1ccc(Cl)cc1	-1	0	12	-1	-1	-4	-1	0	0.1
CC1=C(C(=O)Nc2ccccc2)C(c2cccs2)n2nnnc2N1 (stereo unspecified)	-1	8	6	-2	-3	-1	0	3	-1.0
CCCCN1CCCCC1C(=O)Nc1c(C)cc(C)cc1C (stereo unspecified)	0	-8	-3	3	-1	0	2	8	1.3
CCCCC(C(=O)NCCC(C)C)N(CCCN1CCOCC1)C(=O)c1snc(C(N)=O)c1N (stereo unspecified)	3	5	-1	-5	-3	0	4	-5	1.7
Cc1cccc(/C=N/NC(=O)C(C)Nc2cccc3ccccc23)n1 (stereo unspecified)	1	-4	67*	26*	3	32*	37*	6	1.0
Cc1cc(C)cc(N2C(=O)C3CCCN3C2=S)c1 (stereo unspecified)	-3	-2	-14	0	-2	4	-2	-2	-3.2
O=C1CCC(C(=O)Nc2ccccc2N2CCCC2)=NN1	0	-10	3	5	7	-2	12	10	0.8
CCOCCCn1c(=S)[nH]c2cc(C(=O)NCc3ccc(F)cc3)ccc2c1=O	1	-5	15	-2	-1	-1	1	11	2.5
O=C(COC(=O)/C=C/c1cccc(Cl)c1)NC1CCCC1	5	3	10	-1	-1	-2	-2	-8	-0.4
CC(C)NC(=O)c1ccc(Sc2ccccc2)c([N+](=O)[O-])c1	2	6	-5	-1	-1	2	1	1	-3.9
CCOC(=O)c1c(C)[nH]c(C)c1C(=O)COC(=O)c1cccc(S(=O)(=O)NC)c1	0	3	-2	0	0	-1	-2	-2	-0.9
CCOC(=O)NCC(C#CCN(CC)CC)N(CC)CC (stereo unspecified)	3	1	-1	-1	-3	-4	2	5	-1.5
COCc1c(C(=O)NCCc2ccc(OC(F)F)cc2)oc2ccccc12	4	1	2	0	-2	-1	-2	0	0.2
Cc1nn(Cc2cccc(C(=O)NC3CCCCC3)c2)c(C)c1Cl	-5	0	-2	-1	0	0	7	1	0.1
O=C(C1CC(=O)N(c2ccccc2)C1)N1CCCCCC1 (stereo unspecified)	2	2	-2	-4	-1	1	-3	-5	-1.0
COc1ccc(OC)c(-n2c(-c3cc(-c4ccccc4)n[nH]3)n[nH]c2=S)c1	2	2	0	6	2	-2	7	1	0.7
CCCCC1=CC2=CC(=O)C(C)(OC(=O)CC)C(=O)C2=CN1CCCCO (stereo unspecified)	4	3	22	6	0	-2	-2	-3	-0.8
COc1cnc(-c2ccccn2)nc1Sc1cccc(Cl)c1	-10	1	4	0	0	6	0	-4	0.1
COc1ccc(/C=C/C(=O)NC(=S)N2CCCC(C(N)=O)C2)cc1 (stereo unspecified)	6	-5	-6	4	1	-2	-6	-2	-2.0
C=C(C)[C@H]1CC=C(C)/C(=N/NC(=O)CNc2ccccc2OC)C1	-4	-1	-8	-1	-6	3	7	3	-3.4
O=C(NC1CCCCC1)C(c1cccs1)N(C(=O)Cc1c[nH]c2ccccc12)c1ccc(F)cc1 (stereo unspecified)	-3	7	-4	1	-1	-1	-7	-1	-1.4
Nc1nc(SCc2ccccc2)c2[nH]cnc2n1	-3	-5	0	2	-1	-1	0	2	-1.2
The list continues.
SMILES	Tn7 DDE FP	TCR-CD3 inh	TDP2 absorb	PRMT1 inh	UHRF1 binding	LEDGF integ inh	mABHD4 FP	SIAE inh	PG9 binder
C=CCn1c(SCC(=O)Nc2c(C)nn(Cc3ccccc3)c2C)nnc1C(O)c1ccccc1 (stereo unspecified)	-2	7	-7	1	2	-3	-1	-2	-1.5
COc1ccccc1-c1n[nH]c(=S)n1Cc1ccccc1	5	-4	8	16	1	-5	-4	5	-1.2
Cc1ccccc1NC(=O)C1CC(Cl)=CCC1C(=O)O (stereo unspecified)	-2	3	0	-1	-2	-1	0	0	0.4
O=C(Cc1ccccc1)N/N=C/c1ccc2cccc(O)c2n1	-3	-1	-3	4	-2	-7	13	9	0.2
O=C(NCCOc1nc(N2CCCCC2)nc(N2CCCCC2)n1)Nc1ccccc1	5	3	-11	3	5	0	0	-7	1.4
CC1(C)Cc2c(C#N)c(SCCOc3ccccc3)nc(N3CCOCC3)c2CO1	-3	0	3	-2	0	5	6	5	3.5
Cc1ccc(S(=O)(=O)n2nc(OC(=O)C(C)(C)C)cc2N)cc1	6	6	-1	1	-3	3	12	2	2.1
CC1=C(C(=O)Nc2ccccc2)C(c2ccncc2)n2nnnc2N1 (stereo unspecified)	6	-5	4	4	3	-3	2	-9	0.9
O=C(Nc1ccc(N2CCOCC2)cc1N1CCOCC1)c1ncoc1-c1cccc(F)c1	1	-2	-1	-2	-3	2	4	1	2.1
COc1cccc(/C=C/C(=O)NCC2CCCCC2)c1	2	3	11	-3	-2	0	-4	-2	-3.6
CCCCOC(=O)/C=C/c1ccc(OC(=O)OC)c(OC(=O)OC)c1	2	-6	-4	3	2	-4	26	3	-0.6
CS(=O)(=O)n1nc(OC(=O)c2cccs2)cc1N	-13	-3	-20	2	3	1	-7	4	-1.6
CCCCC1=CC2=CC(=O)C(C)(OC(=O)CC)C(=O)C2=CO1 (stereo unspecified)	-3	6	0	12	-1	6	20	-4	-0.2
O=C(NCCNCc1ccccc1)c1ccco1	-2	1	9	28*	9	11	26	11	-0.4
COc1ccccc1Sc1nc(-c2ccccn2)ncc1OC	-2	-2	0	0	8	9	1	-4	-2.5
O=C(CCCN1C(=O)S/C(=C\c2ccccc2)C1=O)NNC(=O)c1ccccc1O	0	28*	3	7	0	-6	9	2	-0.4
CC(Sc1n[nH]c(-c2cccs2)n1)C(=O)N1CCCC1 (stereo unspecified)	-1	4	-11	-2	-2	0	-3	7	-0.2
C=CCOc1ccccc1CN1CCC(n2nccc2NC(=O)c2ccccc2)CC1	1	1	15	-2	-1	3	-1	4	0.1

Not all compounds are listed; the hit share may differ from the screen's.
